# Assay outcomes from PubChem BioAssay.
# HCMV NEC inh = cytomegalovirus nuclear egress complex inhibition; HTRF UL50-UL53 interaction, normalized percent inhibition; inhibition, % (test concentration not listed); actives 0.15% (n = 190,000); AID 1918969;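 active means both replicates at 50% or more, plus weaker picks with an unusually low signal ratio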;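 further: stock transfer was 100 nL into about 20 µL; 0% = negative control wells and 100% = wells with untagged competitor protein; inactives centre near -12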
# Sa growth 42C = S. aureus growth inhibition | actives 0.53% (n = 170,000) | AID 720641 | S. aureus RN4220 growth, OD600, 20 h, 42 °C; hits give low values | relative growth, % (no concentration beside the values);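 active means growth at 42 °C up to 50% and 20 or more points under that at 30 °C, or under 10% at both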;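 further: 300 nL library stock went into each well; scaled to the means of positive and negative controls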
# GIV Gai3 FP = inhibitors of GIV GBA-motif binding to rat Galpha-i3 | Galpha-i3/FITC-GIV peptide fluorescence polarization, 90 min; hits give low values; scaled: aluminum fluoride 0%, vehicle 100% | actives 0.42% (n = 210,000) | percent of control (FP), % (test concentration not listed) | P08753;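 active means replicate mean at 85% of control or lower, very high polarization wells dropped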;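 further: wells of about 15 µL received 100 nL stock; the first replicate is given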
# Target sequence (P08753 whole entry, looked up): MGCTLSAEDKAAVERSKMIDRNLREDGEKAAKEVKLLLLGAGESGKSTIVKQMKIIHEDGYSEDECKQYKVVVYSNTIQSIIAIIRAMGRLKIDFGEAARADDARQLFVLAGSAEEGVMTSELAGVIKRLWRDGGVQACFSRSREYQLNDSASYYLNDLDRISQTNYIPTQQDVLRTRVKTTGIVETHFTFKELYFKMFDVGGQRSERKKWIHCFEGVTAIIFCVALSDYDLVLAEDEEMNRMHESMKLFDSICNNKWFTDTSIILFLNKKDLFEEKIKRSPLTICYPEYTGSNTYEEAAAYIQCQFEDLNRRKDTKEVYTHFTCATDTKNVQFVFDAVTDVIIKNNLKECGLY
# Sa growth 42C second temp = also measured in Sa growth 42C; calls as there; relative growth, %; measured here: growth at 30 °C;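 optical density after 20 h as mean of two plates; 100% = untreated growth and lower means inhibition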
# Starred values were filed as active, the others as inactive; / = not tested or not shown; & = joins results of further samples.
# The first five compounds as a preview:
# Order of results – HCMV NEC inh	Sa growth 42C	Sa growth 42C second temp	GIV Gai3 FP
CCOc1ccccc1N(CC(=O)N1CCN(c2ccccc2)CC1)S(=O)(=O)c1ccc(C)cc1
  14	/	/	103
CCN1c2ccccc2-c2nc3ccccc3n2C1c1ccco1 (centres undefined)
  18	85	66	107
COC(=O)c1sc(S(=O)(=O)N2CCCC2)c(C(=O)OC)c1C
  -6	112	92	105
COC(=O)C1=NN(C(=O)c2cccc(OC)c2)C(O)(c2ccc(Cl)cc2)C1 (centres undefined)
  2	/	/	171
COc1cc(=O)n(-c2ccc(C)cc2)nc1C(=O)Nc1ccccc1Cl
  -21	/	/	108

# This part in full (from the top)
# Order of results – HCMV NEC inh	Sa growth 42C	Sa growth 42C second temp	GIV Gai3 FP
CCOc1ccccc1N(CC(=O)N1CCN(c2ccccc2)CC1)S(=O)(=O)c1ccc(C)cc1
  14	/	/	103
CCN1c2ccccc2-c2nc3ccccc3n2C1c1ccco1 (centres undefined)
  18	85	66	107
COC(=O)c1sc(S(=O)(=O)N2CCCC2)c(C(=O)OC)c1C
  -6	112	92	105
COC(=O)C1=NN(C(=O)c2cccc(OC)c2)C(O)(c2ccc(Cl)cc2)C1 (centres undefined)
  2	/	/	171
COc1cc(=O)n(-c2ccc(C)cc2)nc1C(=O)Nc1ccccc1Cl
  -21	/	/	108
Cc1cccn2cc(-c3ccccc3Cl)nc12
  -8	78	71	100
COc1ccc(CNS(=O)(=O)c2cc3c(cc2Cl)NC(=O)CO3)cc1
  /	129	88	110
COc1ccc(OC)c(-n2nnc(-c3nc(-c4ccc5c(c4)OCO5)no3)c2C)c1
  /	92	87	105
Cc1cc(NC(=O)Cc2cccc(C(F)(F)F)c2)n(-c2ccccn2)n1
  -29	93	91	/
Cc1nn(C2CCS(=O)(=O)C2)c2nc(C3CC3)cc(C(=O)OCC#N)c12 (centres undefined)
  -13	92	98	/

# Carrying on.
# Order of results – HCMV NEC inh	Sa growth 42C	Sa growth 42C second temp	GIV Gai3 FP
Cc1ccc(Cn2nnc3c(=O)n(CC(=O)NCc4ccccc4Cl)cnc32)cc1
  1	122	90	100
Cc1ccc(S(=O)(=O)c2cn(CC(=O)Nc3cccc(Cl)c3)c3ccccc3c2=O)cc1
  -8	81	92	114
COc1nc(OC)nc(N2CCN(c3ccccc3F)CC2)n1
  -6	86	92	97
COc1ccc(NC(=O)CSc2oc(-c3cccs3)nc2S(=O)(=O)c2ccc(Br)cc2)c(OC)c1
  -28	97	92	107
Cc1oc(-c2ccccc2Cl)nc1CSCC(=O)NC1CC1
  -2	120	84	98
CN1C(C(=O)NCc2cccnc2)=C(c2ccccc2)c2cc(Cl)ccc2S1(=O)=O
  -21	/	/	100
O=C(NCCc1ccccc1)c1ccc(CS(=O)c2cccc(Cl)c2)o1 (centres undefined)
  -33	106	79	105
O=C(COC(=O)c1cc(O)c(O)c(O)c1)c1ccc(C2CCCCC2)cc1
  -11	68	57	/
CCN(CC)S(=O)(=O)c1ccc(N2CC(C(=O)N3CCOCC3)CC2=O)cc1 (centres undefined)
  -6	70	82	/
O=c1oc2cc3occ(-c4ccccc4)c3cc2c2c1CCC2
  /	105	95	96

# Next part.
# Order of results – HCMV NEC inh	Sa growth 42C	Sa growth 42C second temp	GIV Gai3 FP
CN1CCN(CCCNC(=O)c2cn(C)c(=O)c3c2c2ccccc2n3C)CC1
  -42	97	91	100
CN(Cc1nc(-c2ccc(Cl)cc2)no1)S(=O)(=O)c1ccccc1
  -24	95	85	98
Cc1cc(C)c2c(=O)cc(C(=O)Nc3ccc(S(=O)(=O)Nc4onc(C)c4C)cc3)oc2c1
  -60	92	88	101
CCCN1CCC(NCc2cccc(C(F)(F)F)c2)CC1
  -18	125	112	100
CC1CCN(CCCNC(=O)c2ccc(/C=C3\Oc4ccccc4NC3=O)cc2)CC1
  /	95	87	108
COc1ccc(CCN(C)c2ccc(S(=O)(=O)N(C(C)C)C(C)C)cn2)cc1OC
  -20	94	88	/
O=C(NCCc1ccncc1)NC1CCCCC1
  -1	108	88	/
Cc1ccc(CN(C)C(=O)Cc2ccc3c(c2)OCCO3)o1
  10	104	91	/
Cc1ncc(CN2CCSCC2)c(CO)c1O
  -2	90	90	110
CC(C)(C)OC(=O)N1CCC(c2c(C(=O)N3CCN(c4ccccn4)CC3)cnn2-c2ccccc2)CC1
  /	90	91	107

# The listing continues:
# Order of results – HCMV NEC inh	Sa growth 42C	Sa growth 42C second temp	GIV Gai3 FP
CCOC(=O)C1=C(C)N=C2c3ccccc3C(=O)C2C1c1ccc(Br)cc1 (centres undefined)
  /	102	77	104
O=C(Cn1ccn2nc(-c3ccc4c(c3)OCO4)cc2c1=O)N1CCC(Cc2ccccc2)CC1
  -18	/	/	100
O=c1cc(CSc2n[nH]c(-c3ccccc3)n2)[nH]c2ccccc12
  /	114	96	110
O=C(NCC1(c2ccccc2)CCCC1)C(=O)Nc1cccc(Br)c1
  8	92	90	104
CC1CC(C)CN(C(=O)CSc2ncccc2C(=O)O)C1 (centres undefined)
  0	97	85	99
O=C(COc1ccccc1)N1CCNCC1
  30	84	112	108
O=C(CSc1ncnc2c1oc1ccccc12)NCCc1ccccc1
  10&-2	101	89	107
Cc1c(C(=O)Nc2ccc(Br)cc2F)oc2ccc(S(=O)(=O)N3CCC4(CC3)OCCO4)cc12
  /	104	90	105
O=c1[nH]cnc2c1sc1nc(N3CCCCC3)c3c(c12)CCCC3
  -5	109	82	103
COc1ccc(N2CCN(C(=O)CCCN3C(=O)CSC3=S)CC2)cc1
  -24	75	72	/

# (listing goes on)
# Order of results – HCMV NEC inh	Sa growth 42C	Sa growth 42C second temp	GIV Gai3 FP
Cc1cc(C(=O)NC(C)c2ccccc2)c2c(=O)n(C)c(=O)n(C)c2n1 (centres undefined)
  -27	/	/	103
CCc1cccc2c(C(=O)COC(=O)/C=C/c3ccco3)c[nH]c12
  -34	84	103	/
Cc1nn2c(C)c(C(=O)N3CCN(c4ccc(Cl)cc4)CC3)cnc2c1-c1ccc(F)cc1
  /	113	90	97
COc1ccc(C2N3CC4(C)CN2CC(C)(C3)C4O)cc1OC (centres undefined)
  -4	/	/	99
COc1ccc(/C=C2\SC(=O)N(CC(N)=O)C2=O)cc1
  -58	106	100	110
CC(=O)Nc1ccc(S(=O)(=O)Nc2ccccc2C(=O)NC(C)(C)C)cc1
  -3	104	112	106
COC(=O)c1cn(NC(=O)C2CCC(C)CC2)c(=O)c2ccccc12 (centres undefined)
  -12	95	93	105
COc1ccc(-c2nnc(SCC(=O)Nc3cccc(Cl)c3C)nc2-c2ccc(OC)cc2)cc1
  /	96	88	105
CSc1ncc(Cl)c(C(=O)Nc2cccc3ccccc23)n1
  -22	124	85	/
Nn1c(SCc2ccccc2)nnc1C(F)(F)F
  -5	98	93	102

# Other compounds:
# Order of results – HCMV NEC inh	Sa growth 42C	Sa growth 42C second temp	GIV Gai3 FP
CCN1CCN(C(=O)C(NC(=O)C2CCC(C)CC2)C(C)C)CC1 (centres undefined)
  -6	112	82	106
CN1CCN(c2ccc(NS(=O)(=O)c3cc(F)ccc3F)cc2C(=O)O)CC1
  -19	/	/	106
O=S1(=O)N=CNc2ccc(S(=O)(=O)N3CCc4ccccc43)cc21
  -42&-43	19	0	228
CSc1n[nH]c(-c2ccc(C(C)(C)C)cc2)n1
  -1	103	74	97
O=C(Nc1ccc2c(c1)OCO2)Nc1ccc(N2CCOCC2)c2nonc12
  -12	90	95	102
COc1cccc(C(=O)Nc2nc3cc4c(cc3s2)OCO4)c1
  4	109	107	102
CCOc1ccc(C(=O)N(C)CC2COc3ccccc3O2)cc1 (centres undefined)
  -11	116	77	99
COc1ccc(/C=C(\C#N)c2cccs2)cc1
  -40	47*	82*	/
CC(c1ccccc1)n1c(=O)[nH]c2ccccc21 (centres undefined)
  -33	95	98	101
O=C(c1cc(F)c(F)cc1Cl)N1CCCC1c1ccc(F)cc1 (centres undefined)
  -21	/	/	100

# Continuation:
canonical_smiles | HCMV NEC inh | Sa growth 42C | Sa growth 42C second temp | GIV Gai3 FP
O=C(NCCCc1ccccc1)c1ccc(CN2CC(=O)N3CCCCC3C2=O)cc1 (centres undefined) | -7 | / | / | 101
Cc1ccc(CNS(=O)(=O)c2ccc3[nH]c4c(c3c2)CCCCC4)cc1 | / | 97 | 91 | 103
Cc1ccc(S(=O)(=O)Nc2c(C)[nH]c(=O)[nH]c2=O)cc1 | -27 | 102 | 85 | 107
COc1cccc(NC(=S)NC(Cc2ccccc2)c2ccccc2)c1 (centres undefined) | 16 | 89 | 43 | 107
O=C(O)C1Cc2c([nH]c3ccccc23)C(c2cccc(O)c2)N1 (centres undefined) | -15 | / | / | 102
COCCN1CN(Cc2ccccc2)c2nc3ccccc3n2C1 | -24 | 70 | 85 | /
Cc1nn(-c2ccccc2)c2c1N(C(=O)CCC(=O)Nc1ccccc1Cl)CCS2 | 0 | 111 | 94 | 110
Cc1ccc(NC(=O)c2sc3nc(-c4ccc(F)cc4)cn3c2C)cc1 | -21 | / | / | 100
C=CCN=Cc1c(NCC=C)nc2ccccn2c1=O | -51 | 85 | 102 | 96
O=C(Cn1[nH]c(=O)c2ccccc2c1=O)N1CCN(C/C=C/c2ccccc2)CC1 | -30 | 88 | 87 | /
CC(C)(C)c1csc(NC(=O)C(CC(=O)O)NCc2ccco2)n1 (centres undefined) | 2 | 91 | 101 | 99
O=c1c(Nc2ccc(F)cc2)c(-c2ccccc2)c1=O | -42 | / | / | 107
CCOC(=O)c1sc(=S)n(-c2ccc(OC)c(Cl)c2)c1N | / | 118 | 87 | 102
O=C(Nc1nnc(S(=O)(=O)N2CCCC2)s1)c1ccccc1Cl | 22 | 133 | 106 | 107
Fc1cccc(Cl)c1CSc1ccccc1C1=NCCCN1 | -18 | 97 | 84 | 104

# Going on with the list.
canonical_smiles | HCMV NEC inh | Sa growth 42C | Sa growth 42C second temp | GIV Gai3 FP
COc1ccc(OC)c(CCNc2nc(-c3ccc(OC)c(OC)c3)no2)c1 | 9 | / | / | 103
FC(F)(F)c1cnc(NCCNc2cnc3ccccc3n2)c(Cl)c1 | -13 | 81 | 83 | 101
Cc1cc(Nc2ccc3ccccc3n2)n(-c2ccccc2)n1 | -20 | 98 | 92 | /
C#CCN=Cc1ccc(OCCC)cc1O | 0 | 99 | 91 | /
CCc1ccccc1NC(=O)CNC(=O)c1n[nH]c(=O)c2ccccc12 | -47 | 87 | 90 | /
CSCCC(NS(=O)(=O)c1ccc2c(c1)oc(=O)n2C)C(=O)Nc1ccc(Cl)cc1 (centres undefined) | -34 | 97 | 87 | 103
COC(=O)c1cccc(NC(=NCc2ccncc2)NC(=O)c2cc(OC)cc(OC)c2)c1 | -9 | / | / | 105
COc1cccc(C=Nc2cccc(C(=O)O)c2C)c1O | / | 86 | 76 | 107
CC1(C)CC2(CCO1)OC(=O)CC2C#N (centres undefined) | -1 | 87 | 114 | 107
Cc1cc(C(=O)O)cs1 | -5 | 99 | 98 | 107
O=C(NCCc1csc2nc(-c3cccc(F)c3)nn12)c1cccc(Br)c1 | 15 | / | / | 106
COCCN[C@H]1CS(=O)(=O)C[C@@H]1S(=O)(=O)c1ccc(F)cc1 | -24 | / | / | 99
COCC(=O)N(CC1CCCO1)c1nnc(C)s1 (centres undefined) | -6 | 100 | 79 | 103
CC1(C)CC(=O)C(C=NCCCN2CCCC2=O)=C(O)C1 | -6 | 106 | 79 | 95
COc1ccc(C2CC(=O)C3=C(C2)Nc2ccccc2NC3c2cc(Br)c(OC)c(OC)c2)cc1OC (centres undefined) | -9 | / | / | 106

# New compounds follow
canonical_smiles | HCMV NEC inh | Sa growth 42C | Sa growth 42C second temp | GIV Gai3 FP
Cn1c(=O)c2cc(C(=O)N3CCN(c4ccc(Cl)cc4)CC3)sc2c2ccccc21 | -6 | 111 | 76 | 104
O=C(CCOc1ccccc1)N(Cc1cccnc1)c1nc2ccc(F)cc2s1 | / | 132 | 84 | 101
CC(On1nnc2ccc(C(F)(F)F)cc21)C(=O)Nc1ccc(C#N)cc1 (centres undefined) | -14 | 63 | 70 | /
O=S(=O)(Nc1nc2n(n1)C(c1ccc(Cl)cc1)C=C(c1ccccc1)N2)c1ccc(Cl)cc1 (centres undefined) | 7 | / | / | 116
O=C(OCc1nc2ccccc2s1)c1ccccc1 | 0 | 103 | 103 | 107
COc1ccc(Cn2c(=O)sc3ccccc32)cc1 | -6 | 126 | 76 | 100
Cc1ccc(-n2c(=O)c3ccc(C(=O)NCc4ccco4)cc3n(CC(=O)Nc3ccc(C)c(F)c3)c2=O)cc1 | -2 | 102 | 87 | 106
O=C(N/N=C\c1cc(Cl)ccc1O)c1ccc(S(=O)(=O)N2CCCCC2)cc1 | -9 | 139 | 95 | 150
O=C(CN1C(=O)C2(SCC(=O)N2c2ccc(F)cc2)c2ccccc21)NC1CCCCC1 (centres undefined) | / | 88 | 94 | 105
CCOC(=O)c1cc2ccccc2o1 | -14 | / | / | 103
Cc1ccc(OCC(=O)Nc2ccc3nc(SCC(=O)N(C)c4ccccc4)sc3c2)cc1 | -24 | 101 | 83 | 98
O=C(NC1C2CC3CC(C2)CC1C3)C1CCCCC1 (centres undefined) | 12 | 113 | 103 | /
Cn1ncc(Br)c1-c1nc2ccccc2[nH]1 | -16 | 97 | 102 | /
Cc1cc(Cc2ccccc2)c(C)cn1 | 0 | 73 | 86 | 97
COc1ccc(CNC(=O)c2cnn(-c3ccc(OC)cc3)c2C2CCN(C(=O)OC(C)(C)C)CC2)cc1 | / | 102 | 81 | 108
CCN(CC)S(=O)(=O)c1ccc(NC(=O)CSc2nc3ccccc3o2)cc1 | 0 | 103 | 104 | /
O=C(C[n+]1cc(-c2ccccc2)n2c1CCC2)c1ccccc1 | -13 | 122 | 82 | /
